Biofilm kill mix: mixtures killing C. albicans biofilm; AID 1242; 120,000 compounds, 0.02% hits; inhibition, % at 7.6 µM; C. albicans biofilm persisters + clotrimazole, fluorescence viability; primary screen in compound mixtures of four per well;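 active = inhibition above 30.3% in the primary screen of four-compound pools, then above 30% when the compound was retested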;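 note: compounds exposed to preformed 24 h biofilms for 48 h; the number belongs to the whole pool; some results filed as inactive read as strong as hits; inactives centre near 12; 0% = biofilm with clotrimazole alone and 100% = kill control; retested singly at about 60 µM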
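System: C. albicans CAF4-2 wild-type biofilms; Medium: RPMI/MOPS medium, pH 7.0; Reagent: Clotrimazole, 50 µg/mL; Times: biofilm formation 24 h, compound exposure 48 h, 37 °C; Detection: 2-h Alamar Blue fluorescence, 535/590 nm excitation/emission; Evaluation: percent inhibition of biofilm viability.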
Starred values were filed as active, the others as inactive. Only part of the results is shown, so the mix of outcomes need not match the whole.

SMILES | Biofilm kill mix
O=c1c2ccc(Cl)cc2nc(-c2ccc([N+](=O)[O-])cc2)n1O | 16.8
CCCCNCCOCCOc1ccc(Cl)cc1Br | 22.6
COc1ccccc1NC(=S)NC1CCCCCC1 | 17.4
COc1cccc(NC(=O)Nc2cc(Cl)ccc2C)c1 | -2.3
Cc1ccc(C(=O)N(Nc2nc3ccccc3s2)C(=O)c2ccc(C)cc2)cc1 | 19.2
Cc1ccnc(NC(=O)c2ccc3c(c2)OCO3)c1 | 2.2
COc1cc(CN2CCN(Cc3ccc([N+](=O)[O-])cc3)CC2)c([N+](=O)[O-])cc1OC | 2.0
CCOC(=O)c1ccc(NC(=O)COc2ccc(S(=O)(=O)NC(C)(C)C)cc2)cc1 | 6.6
NNC(=O)CSCc1nc(-c2ccc(Cl)cc2)cs1 | 8.4
CN(NC1CC(=O)N(c2ccccc2)C1=O)c1ccccc1 (stereo unspecified) | 11.3
CN1CCN(C(=O)C2=C[C@@H](c3coc4ccccc4c3=O)C[C@@H](OCc3ccc(CO)cc3)O2)CC1 | 15.1
C/C=C/c1ccc(OCCCCOc2ccccc2C(C)=O)c(OC)c1 | 10.9

Ordered by length of the SMILES (high to low): 3 of the compounds above
SMILES | Biofilm kill mix
CN1CCN(C(=O)C2=C[C@@H](c3coc4ccccc4c3=O)C[C@@H](OCc3ccc(CO)cc3)O2)CC1 | 15.1
C/C=C/c1ccc(OCCCCOc2ccccc2C(C)=O)c(OC)c1 | 10.9
COc1ccccc1NC(=S)NC1CCCCCC1 | 17.4

Following part.
SMILES | Biofilm kill mix
CCn1c(/C=C/Nc2ccccc2)[n+](CC)c2cc(Cl)c(Cl)cc21 | 15.0
Cc1ccc(S(=O)(=O)N2CCCCC2)cc1NC(=O)COC(=O)c1ccc2c(c1)OCO2 | 4.8
COc1ccc(Br)c2oc(S)cc(=O)c12 | 10.0
COc1ccc(NC(=O)CSc2nnc(-c3cccnc3)n2C)cc1 | 23.6
Fc1ccc(Nc2ncnc3sc4c(c23)CCC4)cc1F | 17.1
COc1cc(-c2nc(CN3CCN(c4ncccn4)CC3)c(C)o2)ccc1F | 28.1
Cn1ncc2c(NNC(=O)c3ccc(O)cc3)ncnc21 | 12.8
Cc1ccc(/C=C2\SC(=S)N(c3cccnc3)C2=O)o1 | 21.2
COc1ccc(CCNC(=O)c2ccc(CSc3ccccc3)o2)cc1 | 6.6
CCC(C)(C)C1CCc2nc3ccccc3c(C(=O)OC(C)C(=O)Nc3c(C)n(C)n(-c4ccccc4)c3=O)c2C1 (stereo unspecified) | 18.6
O=C(Nc1cc(S(=O)(=O)Nc2ccccc2Cl)ccc1O)c1sc2cc(Cl)ccc2c1Cl | 13.7
CCOc1ccccc1C1C2CCCCC2(O)CCN1C(=O)c1cccs1 (stereo unspecified) | 21.7
CCC(=O)Nc1cccc2cccnc12 | 14.9
COc1ccc(S(=O)(=O)N/N=c2\oc3c(OC)cccc3cc2S(=O)(=O)c2ccc(C)cc2)cc1OC | 15.4
COCCn1c(C(=O)N2CCCC2)cc2c1C[C@H]1CN(C(=O)c3ccccc3)[C@@](Cc3ccc(F)cc3)(C(=O)OC)[C@@H]21 | 13.5
CC(C)C12CN3CC(C(C)C)(CN(C1)C3c1ccc([N+](=O)[O-])o1)C2=O (stereo unspecified) | 11.8
CCN(CC)C(=O)CCS(=O)(=O)c1cccc2nonc12 | 22.1
COc1ccccc1C1CCN(C(=O)c2cnn(-c3ccccc3)c2C)CC1 | 15.7
CCN(CC)CCCNC(=O)CNC(=O)c1nn(-c2ccc(OC)cc2)c(=O)c2ccccc12 | 18.4
COc1ccc2c(C)cc(N3CCCCCC3)nc2c1 | 0.1
CC(N)(C(=O)O)c1cccc(OCc2cccc(Cl)c2)c1 (stereo unspecified) | 5.0
C=CCSc1nnc(NC(=O)COc2ccccc2)s1 | 15.0
Cc1ccc(C)c2nc(Cl)c(C#N)cc12 | 23.0
CC(C)C(OC(=O)CCC(=O)Nc1nccs1)C(=O)NC1CCCCC1 (stereo unspecified) | 12.6
CCc1nnc(NC(=O)C2CCCN2S(=O)(=O)c2ccccc2)s1 (stereo unspecified) | 10.1
COc1ccc(/C=N/Nc2ncc(Br)cn2)c(OC)c1 | 1.3
CCn1cc(CNC(=O)c2ccc(Cl)c([N+](=O)[O-])c2)c(C)n1 | 0.6
COC(=O)c1cn(NC(=O)Cc2ccc(Cl)cc2)c(=O)c2ccccc12 | 5.4
Cc1cc(NC(=O)COC(=O)c2cccc(S(=O)(=O)N(C)C3CCCCC3)c2)no1 | 5.1
CC(=O)c1ccc(N(C(=O)CNC(=O)c2ccco2)C(C(=O)NCC2CCCO2)c2ccccc2)cc1 (stereo unspecified) | 15.1
CCc1ccc(-n2c(=S)sc3c(=O)n(-c4ccccc4OC)c(=S)[nH]c32)cc1 | 7.5
FC(F)Sc1ccc(Nc2ncnc3nc[nH]c23)cc1 | 7.4
CC[C@H](C)[C@H](NC(=O)c1ccccc1)C(=O)Nc1ccc(S(=O)(=O)Nc2cc(C)nc(C)n2)cc1 | 17.9
C/C(=N/NC(=O)c1cc(-c2ccc(Br)s2)[nH]n1)c1ccco1 | 12.5
CN(c1ccccc1)S(=O)(=O)c1ccc(C(=O)NCc2cccs2)cc1 | 19.0
Cc1cc(C)n(-c2cc(O)c(-n3nc(C)cc3C)cc2O)n1 | 9.9
Cc1ccc(NC(=O)CSc2ncnc3ccccc23)cc1S(=O)(=O)N1CCOCC1 | 3.2
COc1cc(N(C)C)c([N+](=O)[O-])cc1C(=O)N1CCOCC1 | 3.1
O=C(CCn1c(=O)c2ccccc2n(CC(=O)N2CCN(c3ccccc3)CC2)c1=O)NCc1ccco1 | 23.6
O=S(=O)(NCc1ccccn1)c1ccc(Cl)s1 | 15.3
COc1cc2c(cc1OC)CN(C(=O)c1ccc(OC)c([N+](=O)[O-])c1)CC2 | 22.7
OC(COCCOc1ccc(Br)cc1)CN1CCN(Cc2ccccc2)CC1 (stereo unspecified) | 19.5
COc1ccc(NC(=S)NCCN2CCC(C)CC2)cc1Cl | 15.8
O=C(CC12CC3CC(CC(C3)C1)C2)Nc1ccccc1N1CCOCC1 | 16.2
S=c1[nH]nc(CSCCOc2ccc(Cl)cc2Cl)o1 | 4.7
CCc1cc2c(C)cc(C)cc2nc1SCC(=O)Nc1cc(C)on1 | 10.9
O=[N+]([O-])c1ccc(N2CCCCC2)cc1 | 29.7
O=C(O)C1CCCN1S(=O)(=O)c1ccccc1 (stereo unspecified) | 3.8
CSc1nc(-c2ccccc2)cn1-c1ccc(NC(C)=O)cc1 | 12.2
C/C(=N\Nc1nc(-c2ccccc2O)nc2ccccc12)c1ccccc1 | 23.1
OCCC1CN(Cc2c(F)cccc2Cl)CCN1C1CCCCC1 (stereo unspecified) | 26.9
c1cnc(-c2noc(CN3CCN(C4C5CC6CC(C5)CC4C6)CC3)n2)cn1 (stereo unspecified) | 20.9
COc1ccc(C(=O)c2c(NC(C)=O)sc3c2CCN(C(=O)OC(C)(C)C)C3)cc1 | 18.6
CC(C)c1onc(C(=O)Nc2cccc(O)c2)c1[N+](=O)[O-] | -0.1
C/C(=N\Nc1nc(N2CCOCC2)nc(N2CCOCC2)n1)c1cccs1 | 14.7
Cc1ccc(N2C(=O)/C(=C/c3cccnc3)SC2=S)cc1 | -3.3
CC(Oc1ccccc1)C(=O)NC1C(=O)N2C1SC(C)(C)C2C(=O)O (stereo unspecified) | 0.8
O=C(/C=C/Nc1ccc(F)cc1F)c1ccco1 | 23.8
COc1ccc(CC2(CO)CCN(C(C)COc3ccccc3)CC2)cc1 (stereo unspecified) | 12.6
CCN(CC(=O)NCc1ccc(F)cc1)CC(=O)Nc1ccccc1-c1ccccc1 | 15.2

Further records follow.
SMILES | Biofilm kill mix
COc1ccc(C(=O)NC(=S)N2CC(C)OC(C)C2)cc1 (stereo unspecified) | 22.7
Cc1ccc(CNC(=O)Cc2nc3nc(C)cc(C)n3n2)cc1 | 14.4
COc1ccc(S(=O)(=O)N(CCc2ccccc2)CC(=O)N/N=C/c2ccc3c(c2)OCO3)cc1 | 9.9
Cc1cnc2cc(Cl)c(Cl)cc2n1 | 20.3
CCCCNC(=O)[C@H](CSCc1ccccc1)N1Cc2ccccc2C1=O | 2.4
CCOC(=O)c1ccccc1NC(=O)CSc1nc(N)cc(=O)[nH]1 | 12.6
CCOc1ccc(CNc2ccc(S(N)(=O)=O)cc2)cc1 | -4.2
CCCCOC1CC(c2ccc(OCc3ccc(OC)cc3)c(OC)c2)N(C)O1 (stereo unspecified) | -8.8
O=C1c2ccccc2C(=O)N1CN(C(=O)COc1ccccc1)c1ccc(F)cc1 | 26.9
COC(=O)c1ccc(-c2noc(CN(Cc3ccccn3)CC3CCCO3)n2)cc1 (stereo unspecified) | 7.4
CCc1ccc(OCC(=O)NC(NC(=S)Nc2ccccc2)C(Cl)(Cl)Cl)cc1 (stereo unspecified) | 17.7
O=C(CN1CCN(Cc2ccc(Cl)cc2)C1=O)NCc1cccs1 | 16.2
O=C(NCC1CCN(S(=O)(=O)c2ccccc2)CC1)Nc1ccc(F)cc1F | 11.4
CC(=O)Nc1csc2ccccc12 | 8.3
c1ccc2oc(-c3[nH]ncc3CN3CCC(N4CCSCC4)CC3)cc2c1 | 12.1
Cn1c(SCC(=O)c2ccc3c(c2)Cc2ccccc2-3)nnc1-c1cccc(N)c1 | 12.2
Cc1nc2ccccc2c2c1C(=O)NC2=O | 27.3
NCCCNC(=O)c1ccc(/C=N/O)nc1 | 8.2
CN1CCc2cccc3c2[C@@H]1Cc1ccc(O)c(O)c1-3 | 13.3
Oc1c(Cl)cc(Cl)cc1C=Nc1cc(C(F)(F)F)ccc1N1CCc2ccccc2C1 | -1.6
O=C(Cc1ccccc1)NNC(=S)Nc1ccc(Cl)cc1 | 5.8
Cc1cccc(N2CCN(CC(O)COc3ccc(Cl)cc3)CC2)c1 (stereo unspecified) | 17.1
C=CCN(CC=C)C(=S)NC(=O)c1ccc(C)c(Br)c1 | 16.7
NC(=O)C1CCN(C(=O)c2cccc(S(=O)(=O)N3CCc4ccccc4C3)c2)CC1 | -11.8
Fc1ccc(-c2nc3c(-c4ccc(F)cc4)cnn3cc2CCN2CCOCC2)cc1 | 14.2
COc1ccc(C(=O)N2CCC(C(=O)Nc3ccc4c(c3)OCO4)CC2)cc1 | 17.4
COc1ccc(CCN(C)C(=O)CSc2nc3ncc(Cl)cc3[nH]2)cc1OC | 16.6
CN(Cc1ccccc1)CC(O)COc1ccc(CNCCCOc2cccnc2)cc1 (stereo unspecified) | 9.2
COC(=O)c1c(NC(=O)CN2C(=O)C(=O)N(CC(C)C)C2=O)sc2c1CCCCC2 | 18.6
COc1cc(CC(=O)Nc2cc(S(C)(=O)=O)ccc2Cl)cc(OC)c1OC | 2.7
O=C(Cc1cccs1)N1CCN(S(=O)(=O)c2ccccc2)CC1 | 15.9
O=[N+]([O-])C(/C=C(/Cl)[N+](=O)[O-])=C(N1CCCCC1)N1CCCCC1 | 17.9
COc1ccc(Br)cc1/C=N/Nc1cccc(C(=O)O)c1 | 7.4
CN(C)C(CNC(=O)c1cccc(C#N)c1)c1ccco1 (stereo unspecified) | 8.4
OCC(O)CN1CCCC1 (stereo unspecified) | 24.7
Cc1ccc([N+](=O)[O-])c(-c2n[nH]c(=S)n2-c2cccc(Cl)c2)c1 | 23.7

Compounds shown so far containing an aryl thioether with sulfur outside any ring (ten):
SMILES | Biofilm kill mix
COc1ccc(NC(=O)CSc2nnc(-c3cccnc3)n2C)cc1 | 23.6
COc1ccc(CCNC(=O)c2ccc(CSc3ccccc3)o2)cc1 | 6.6
C=CCSc1nnc(NC(=O)COc2ccccc2)s1 | 15.0
FC(F)Sc1ccc(Nc2ncnc3nc[nH]c23)cc1 | 7.4
Cc1ccc(NC(=O)CSc2ncnc3ccccc23)cc1S(=O)(=O)N1CCOCC1 | 3.2
CCc1cc2c(C)cc(C)cc2nc1SCC(=O)Nc1cc(C)on1 | 10.9
CSc1nc(-c2ccccc2)cn1-c1ccc(NC(C)=O)cc1 | 12.2
CCOC(=O)c1ccccc1NC(=O)CSc1nc(N)cc(=O)[nH]1 | 12.6
Cn1c(SCC(=O)c2ccc3c(c2)Cc2ccccc2-3)nnc1-c1cccc(N)c1 | 12.2
COc1ccc(CCN(C)C(=O)CSc2nc3ncc(Cl)cc3[nH]2)cc1OC | 16.6

Next section.
SMILES | Biofilm kill mix
FC(F)(F)c1cc(-c2ccccc2)nc(NCc2cccs2)n1 | 16.1
C=CCOc1ccccc1CNc1ccc2c(c1)OCCO2 | 15.5
CCCN1C(=O)COc2ccc(C(=O)c3ccccc3C(=O)O)cc21 | 6.0
O=C1CN(C(=O)CSc2nc(-c3ccccc3)cs2)c2ccccc2N1 | 12.8
COc1cccc(OC)c1C(=O)NC(=S)Nc1ccc2oc(=O)ccc2c1 | 9.9
CN(C)c1ccncc1C(=O)Nc1ccc(F)cc1F | 14.0
COc1ccccc1Oc1ccc(NC(=O)c2ccccc2C)cc1 | 12.6
CCn1c2ccccc2c2cc(CNCc3ccc(OC)cc3OC)ccc21 | 4.4
O=c1[nH]c(Nc2ccc3c(c2)OCCO3)nnc1Cc1ccc(Cl)cc1 | 2.0
CCC(C)NC(=O)c1nn(C)c(=O)c2ccccc12 (stereo unspecified) | 11.3
CCOc1cc(CNCC(O)c2ccccc2)cc(Cl)c1OC (stereo unspecified) | 10.7
Cc1cc(N2CCN(C)CC2)ccc1NC(=O)c1cccc(S(=O)(=O)N2CCc3ccccc3C2)c1 | 7.5
COc1cc(/C=C/c2nnc3c4ccccc4ncn23)cc(OC)c1OC | -0.3
O=C(CNCc1ccccc1Cl)NCc1ccco1 | -0.6
O=C(CCC(=O)Nc1ccccc1)NNC(=O)C(c1ccccc1)c1ccccc1 | -4.2
O=C(O)CCC(=O)NNC(=O)c1ccc(-c2ccccc2)cc1 | 17.1
N#C/C(=C\Nc1ccc(F)c(Cl)c1)C(=O)C1CC1 | 15.8
O=C(Nc1ccnc(-c2ccncc2)n1)c1ccccc1Cl | 8.7
COc1ccc(-c2nn(CCC(=O)O)cc2/C=C/C(=O)O)cc1[N+](=O)[O-] | -6.2

Screening results deposited in PubChem by PCMD.
